# Tau fluor counter = counter-screen for tau fibril formation inhibitors. tau K18 P301L (four-repeat tau fragment) Alexa594 fluorescence, heparin fibrillization. Potency, µM (doses to about 57.7 µM), inactives show at the top dose activity change, negative = decrease. AID 1463. 280,000 compounds, 0.93% hits; also: potency is read from the fitted curve at half-maximal effect; % is scaled to controls: 0 for no effect and ±100 for the full control effect; nearly all actives have a fitted effect of over 55% in size
#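 Human K18 P301L tau (15 uM unlabeled plus 0.24 uM Alexa 594-labeled, final) in 100 mM sodium acetate pH 7 was mixed with compound and 20 uM heparin and incubated 6 hr at 37 C.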
# CBFb-RUNX1 inh = inhibitors of human CBF-beta and RUNX1 interaction | Q01196+Q13951 | AlphaScreen CBFb-His/RUNX1-biotin binding, biochemical | Potency, µM (series often up to 59.8 µM), for the others: at the top dose activity, negative = inhibition, hits mostly inhibitors | 230,000 tested, under 10 active; also: % of control where 0% means no effect
# Target sequence (Q01196 whole entry, looked up): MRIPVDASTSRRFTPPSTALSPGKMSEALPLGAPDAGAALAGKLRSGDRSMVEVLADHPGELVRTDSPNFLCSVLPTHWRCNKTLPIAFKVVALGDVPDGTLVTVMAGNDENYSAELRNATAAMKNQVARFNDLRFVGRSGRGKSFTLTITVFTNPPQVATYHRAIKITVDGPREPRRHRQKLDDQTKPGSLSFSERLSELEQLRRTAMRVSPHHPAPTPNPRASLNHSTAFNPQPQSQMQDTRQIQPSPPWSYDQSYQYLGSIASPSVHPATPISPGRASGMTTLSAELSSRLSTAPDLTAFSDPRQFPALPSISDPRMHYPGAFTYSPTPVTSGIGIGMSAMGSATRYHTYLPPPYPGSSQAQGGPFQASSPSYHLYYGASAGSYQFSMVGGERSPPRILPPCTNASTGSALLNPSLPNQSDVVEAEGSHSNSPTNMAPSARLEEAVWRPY
# Target sequence (Q13951 whole entry, looked up): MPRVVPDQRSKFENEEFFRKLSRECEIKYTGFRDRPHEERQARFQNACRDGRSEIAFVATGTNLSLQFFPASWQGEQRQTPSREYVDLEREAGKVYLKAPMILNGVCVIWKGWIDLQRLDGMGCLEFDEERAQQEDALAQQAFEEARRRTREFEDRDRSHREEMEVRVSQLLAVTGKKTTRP
#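 CBF-beta (His) and RUNX1 (biotin), 30 nM each; 20 min preassociation; + compound, 15 min; + beads 50 ng each (Ni, streptavidin), 90 min; RT; AlphaScreen read.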
# TRb SRC2 PPI = inhibitors of human thyroid hormone receptor beta-SRC2 interaction | P10828 | TRbeta-SRC2 peptide binding, fluorescence polarization; receptor liganded with 1 µM T3 | Potency, µM (top dose mostly 106 µM), for inactives: top-dose activity change, negative = inhibition, actives largely listed as inhibitors | 280,000 compounds, 0.065% hits | AID 1469;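 also: potency is read from the fitted curve at half-maximal effect; plate controls were bound peptide for no effect and peptide without receptor for full effect; nearly all actives have a fitted effect of over 50% in size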
#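 Human TRb LBD (0.6 uM) plus Texas Red-labeled SRC2 peptide (20 nM), 1uM T3, 5% DMSO, 5 hr at ambient temperature. Decreased polarization (555/632 nm) flags inhibition; data normalized to free and bound peptide controls.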
# aGal spleen mod = alpha-galactosidase A (human) modulation. P06280. human spleen homogenate, 4MU-alpha-Gal fluorescence, 40 min. Potency, µM (highest dose often 80 µM), inactives show at the highest dose activity change, negative = inhibition, usual class: inhibitors. 240,000 compounds, 0.008% hits. AID 2107;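 also: potency is read from the fitted curve at half-maximal effect; 0% = enzyme with vehicle and -100% = no enzyme basal signal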
# Target sequence (P06280 32-429 limits assumed): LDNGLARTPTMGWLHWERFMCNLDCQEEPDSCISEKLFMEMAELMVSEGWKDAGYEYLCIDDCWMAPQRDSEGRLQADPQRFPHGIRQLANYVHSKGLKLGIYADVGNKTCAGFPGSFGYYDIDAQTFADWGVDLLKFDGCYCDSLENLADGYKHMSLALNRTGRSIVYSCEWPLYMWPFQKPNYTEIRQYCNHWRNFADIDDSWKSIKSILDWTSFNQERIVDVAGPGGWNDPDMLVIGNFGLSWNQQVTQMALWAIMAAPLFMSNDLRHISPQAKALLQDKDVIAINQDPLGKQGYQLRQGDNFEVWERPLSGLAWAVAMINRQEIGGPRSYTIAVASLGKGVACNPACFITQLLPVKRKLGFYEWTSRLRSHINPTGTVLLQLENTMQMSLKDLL
#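 Spleen homogenate 1 ug + cpd (titration) + 4-MU-alpha-D-galactopyranoside 1 mM; 37C 40 min; 50 mM citrate/phosphate pH 5.0, 0.01% Tween-20; stop pH 10; fluorescence 365/440; AC50 via Hill.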
# Epigenetic reg = regulators of epigenetic silencing causing reporter derepression in mouse cells; murine LDR cells, GFP reporter derepression, 30 h; Potency, µM (highest dose often 53.9 µM), without a hit: top-dose GFP activation, most hits filed as activators; 280,000 compounds, 0.2% hits; AID 1865; also: potency is read from the fitted curve at half-maximal effect; % of control where 0% means no effect; nearly all actives have a fitted effect of over 60% in size
#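 Reporter derepression read as number of fluorescent GFP-positive objects, 20-120 um in size, counted by laser-scanning cytometer. Mouse LDR line with an epigenetically silenced CMV-GFP locus; compound incubation 30 h, 37 C.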
# TR SRC2 fluor cs = Texas Red fluorescence interference in TRb-SRC2 counter-screen; TRb/SRC2 Texas Red total fluorescence interference; 280,000 compounds, 0.29% hits; Potency, µM (titrated, usually from 106 µM), inactives show at the highest dose fluorescence change, negative = quenching; active = well fitted curve in either direction with a large enough effect; inconclusive = small, poorly fitted or top-dose-only effect; also: potency is read from the fitted curve at half-maximal effect; % is scaled to controls: 0 for no effect and ±100 for the full control effect
#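 Flags fluorescent or light-absorbing compounds by total fluorescence, S + 2P, at 555 nm excitation and 632 nm emission. Mixture: 20 nM Texas Red SRC2 peptide, 0.6 uM human TRb LBD, 1 uM T3, 5% DMSO; compound exposure 5 h at ambient temperature.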
# Tau fibril FP = inhibitors of human tau fibril formation; P10636; K18 P301L tau heparin fibrillization, Alexa594 FP, 6 h; Potency, µM (doses to about 57.7 µM), for the others: at the highest dose activity, negative = inhibition, hits mostly inhibitors; 280,000 compounds, 0.39% hits; also: potency is read from the fitted curve at half-maximal effect; % is scaled to controls: 0 for no effect and ±100 for the full control effect; nearly all actives have a fitted effect of over 55% in size
#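 Recombinant K18 P301L […], labeled with Alexa 594 at 0.24 uM over 15 uM unlabeled; heparin inducer 20 uM final; 37 C, 6 hr; FP endpoint.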
# Active calls of the source: *; ? = inconclusive; / = not tested or not shown; & = joins results of further samples. Unless noted, calls follow the shape of the dose curve; as a rule, active = well fitted curve in the direction sought with a large enough effect; inconclusive = small, poorly fitted or top-dose-only effect, or another doubt; inactive = no such curve, though single readings can be large; an effect the other way counts as inactive or inconclusive. Some of the compounds tested. The share of hits here may be higher or lower than overall.
Compound,Tau fluor counter,CBFb-RUNX1 inh,TRb SRC2 PPI,aGal spleen mod,Epigenetic reg,TR SRC2 fluor cs,Tau fibril FP
COC(=O)CSc1nc(N2CCCCC2)c2c(c1C#N)CCCC2,-13%,19%,-7%,-4%,0.0%,-1%,11%
COc1ccc(C2c3c(ncn(CCCO)c3=N)Oc3ccc4ccccc4c32)cc1OC (stereo not given),-13%,-10%,1%,-16%,-1.1%,-6%,-11%
c1csc(C(c2nnnn2C2CCCC2)N2CCCC3(CCCCC3)C2)c1 (stereo not given),-8%,2%,-4%,10%,0.0%,-4%,-6%
CN1c2ccccc2Oc2c(c(=O)n(C)c(=O)n2C)C1c1cccc([N+](=O)[O-])c1 (stereo not given),-5%,2%,-10%,2%,0.0%,0%,-4%
COCCCNC(=O)C(C#N)c1nc2ccccc2nc1N1CCN(Cc2ccccc2)CC1 (stereo not given),-16%,5%,-11%,0%,2.4%,-1%,1%
CC(C)C(c1nnnn1C1CCCC1)N1CCN(c2ccccc2F)CC1 (stereo not given),-16%,-1%,1%,8%,-1.7%,-7%,-7%
Cn1cccc1C(=O)OCC(=O)c1cc2ccccc2o1,-13%,-9%,-1%,2%,-1.8%,0%,4%
COc1ccc(C2NC(c3ccc(OC)c(OC)c3OC)C(C)C(=O)C2C)c(OC)c1OC (stereo not given),-1%,-3%,3%,2%,-2.0%,0%,12%
COc1ccc(-n2c(=S)[nH]c3cc(C(=O)Nc4ccccc4OC)ccc3c2=O)cc1,-6%,1%,2%,-4%,-1.1%,9%,0%
CC(C)C(c1nnnn1C(C)(C)C)N1CCC(Cc2ccccc2)CC1 (stereo not given),-12%,0%,-9%,-5%,-1.0%,-3%,0%
COc1cccc(-c2cc(C(=O)Nc3c(C)nn(Cc4ccccc4C)c3C)no2)c1,-14%,1%,5%,-3%,-1.1%,0%,-6%
CCc1cc(C(c2ccc(OC)c(OC)c2)N2CCOCC2)c(NC(=O)c2ccccc2)s1 (stereo not given),?,-4%,-4%,-6%,0.1%,-3%,4%
CC(/C=C/c1ccccc1)=N\NC(N)=S,-18%,-2%,7%,-10%,?,1%,3%
CC1CCCN(c2nc3c(c(=O)n(C)c(=O)n3C)n2CCSc2nc3ccccc3s2)C1 (stereo not given),2%,0%,-5%,-2%,-1.9%,-4%,-1%
O=C(COc1ccccc1[N+](=O)[O-])Nc1ccccc1N1CCCC1,-21%,-30%,2%,-1%,-5.1%,-1%,15%
O=C(O)c1ccccc1-c1ccc(/C=c2\sc3nc4cc(Br)cnc4n3c2=O)o1,-20%,/,0%,-5%,-1.4%,-12%,?
Cc1ccc(-c2c3c(=O)n(C)c(=O)n(C)c3cn2CCCN2CCOCC2)cc1,6%,0%,1%,1%,3.2%,-2%,4%
CC(C)CNC(=S)NC(=O)c1ccc(Cl)cc1Cl,0%,-5%,8%,-1%,-1.1%,-8%,4%
Cc1cccc(C(=O)Nc2ccc(C)c(OC(=O)c3cccc(C)c3)c2)c1,?,9%,-8%,5%,1.1%,1%,-13%
CCCn1c(C)nc2c(c1=O)c1nc3ccccc3nc1n2CCC1=CCCCC1,1%,1%,-11%,11%,-1.2%,-2%,-7%

# Full records as entered above:
# Listed for `Cn1cccc1C(=O)OCC(=O)c1cc2ccccc2o1` → Tau fluor counter = -13%; CBFb-RUNX1 inh = -9%; TRb SRC2 PPI = -1%; aGal spleen mod = 2%; Epigenetic reg = -1.8%; TR SRC2 fluor cs = 0%; Tau fibril FP = 4%
# Listed for `CC(/C=C/c1ccccc1)=N\NC(N)=S` → Tau fluor counter = -18%; CBFb-RUNX1 inh = -2%; TRb SRC2 PPI = 7%; aGal spleen mod = -10%; Epigenetic reg = ?; TR SRC2 fluor cs = 1%; Tau fibril FP = 3%

# Other entries follow.
Compound,Tau fluor counter,CBFb-RUNX1 inh,TRb SRC2 PPI,aGal spleen mod,Epigenetic reg,TR SRC2 fluor cs,Tau fibril FP
O=S(=O)(NC1CCCC1)c1cccc(S(=O)(=O)N2CCC(n3nnc4ccccc43)CC2)c1,-15%,5%,-11%,?,1.9%,0%,-6%
O=C(CSc1ncnc2sc3c(c12)CCCC3)N1CCC(c2noc3ccc(F)cc23)CC1,3%,10%,-27%,-4%,-2.5%,2%,11%
CC(C)c1nc(SCC(=O)Nc2cccc(C(F)(F)F)c2)c2c(=O)n(C)c(=O)n(C)c2n1,-7%,-2%,13%,-13%,0.0%,-3%,-6%
COc1cccc(Nc2ncnc3nc[nH]c23)c1,-3%,8%,-3%,1%,0.1%,0%,9%
COc1ccc(/C=C2\SC(=O)N(CCC(=O)Nc3ccccc3)C2=O)cc1OC,3%,4%,1%,6%,0.0%,-1%,-1%
Fc1ccccc1N1CCN(C(c2ccncc2)c2nnnn2C2CCCC2)CC1 (stereo not given),-14%,8%,1%,8%,-3.1%,0%,-10%
Cc1ccnc(N2CCC(C(=O)NNC(=O)c3ccccc3C)CC2)n1,0%,2%,-2%,2%,-0.2%,2%,3%
Cn1c(C(=O)NCCC2=CCCCC2)cc2c(=O)n3ccccc3nc21,3%,8%,13%,17%,0.0%,14%,13%
CCc1cc2c(=O)c(-c3nc4ccccc4n3C)c(CCCC(=O)O)oc2cc1OC(=O)C(C)(C)C,-1%,-4%,-3%,5%,1.1%,4%,0%
CCOC(=O)C1CCN(C(c2cccnc2)c2c(NC(=O)c3ccco3)sc(C)c2C)CC1 (stereo not given),-13%,5%,-3%,-3%,-3.2%,-8%,6%
Cc1c(NC(=O)c2ccc(N(C)S(C)(=O)=O)cc2)c(=O)n(-c2ccccc2)n1C,-2%,6%,-8%,11%,-0.2%,3%,-2%
Cc1ccc(Cl)cc1NC1=NC(=S)N(C(C)C)C12CCCCC2,-2%,-11%,6%,-2%,-5.9%,-10%,6%
CC(C)C[C@H](NC(=O)OC(C)(C)C)C(=O)N1CCC(C(=O)O)CC1,5%,2%,5%,4%,-2.0%,0%,3%
O=C(COc1ccccc1Cl)N1CCN(c2ccc([N+](=O)[O-])c(N3CCOCC3)c2)CC1,?,-20%,-17%,-16%,-1.9%,1%,-6%
O=C(O)c1c2c(nc3ccccc13)/C(=C/c1ccc(O)cc1)CC2,-8%,/,-1%,4%,-2.8%,-4%,9%
COC1(C)CC2C(CC1OC(=O)c1cc([N+](=O)[O-])cc([N+](=O)[O-])c1)C2(C)C (stereo not given),?,-22%,3%,2%,-0.9%,-1%,8%
O=C(Nc1cccc(Cl)c1N1CCCC1)c1cc2ccccc2o1,10%,-6%,-1%,9%,-1.0%,0%,-6%
Fc1cccc(-c2cc3nc4c(c(N5CCOCC5)n3n2)CCCC4)c1,-5%,8%,3%,-12%,-5.9%,1%,3%
CSc1n[nH]c(NCc2ccccc2)n1,-1%,9%,-5%,1%,0.0%,-7%,-7%
Cc1ccc(Nc2nc(-c3ccc(S(=O)(=O)N4CCOCC4)cc3)cs2)cc1Cl,?,-7%,1%,10%,-1.0%,-3%,?

# 4 compounds picked at random from the list so far:
Compound,Tau fluor counter,CBFb-RUNX1 inh,TRb SRC2 PPI,aGal spleen mod,Epigenetic reg,TR SRC2 fluor cs,Tau fibril FP
CCOC(=O)C1CCN(C(c2cccnc2)c2c(NC(=O)c3ccco3)sc(C)c2C)CC1 (stereo not given),-13%,5%,-3%,-3%,-3.2%,-8%,6%
O=C(CSc1ncnc2sc3c(c12)CCCC3)N1CCC(c2noc3ccc(F)cc23)CC1,3%,10%,-27%,-4%,-2.5%,2%,11%
O=S(=O)(NC1CCCC1)c1cccc(S(=O)(=O)N2CCC(n3nnc4ccccc43)CC2)c1,-15%,5%,-11%,?,1.9%,0%,-6%
CSc1n[nH]c(NCc2ccccc2)n1,-1%,9%,-5%,1%,0.0%,-7%,-7%

# Gathered by group, the compounds so far with a COOH group.
Compound,Tau fluor counter,CBFb-RUNX1 inh,TRb SRC2 PPI,aGal spleen mod,Epigenetic reg,TR SRC2 fluor cs,Tau fibril FP
O=C(O)c1ccccc1-c1ccc(/C=c2\sc3nc4cc(Br)cnc4n3c2=O)o1,-20%,/,0%,-5%,-1.4%,-12%,?
CCc1cc2c(=O)c(-c3nc4ccccc4n3C)c(CCCC(=O)O)oc2cc1OC(=O)C(C)(C)C,-1%,-4%,-3%,5%,1.1%,4%,0%
CC(C)C[C@H](NC(=O)OC(C)(C)C)C(=O)N1CCC(C(=O)O)CC1,5%,2%,5%,4%,-2.0%,0%,3%
O=C(O)c1c2c(nc3ccccc13)/C(=C/c1ccc(O)cc1)CC2,-8%,/,-1%,4%,-2.8%,-4%,9%

# Following part.
Compound,Tau fluor counter,CBFb-RUNX1 inh,TRb SRC2 PPI,aGal spleen mod,Epigenetic reg,TR SRC2 fluor cs,Tau fibril FP
CCC1CCc2c(sc3nc(SCC(=O)NCc4ccco4)n(-c4ccccc4)c(=O)c23)C1 (stereo not given),-5%,7%,-7%,-3%,15%,-3%,-3%
Cc1ccccc1OCCSc1nnc(-c2ccncc2)n1C,-8%,0%,-2%,-4%,-1.0%,-2%,1%
O=C(NCc1ccco1)c1ccc(Cn2c(=O)c3ccccc3n(Cc3cccc(F)c3)c2=O)cc1,-27%,1%,-4%,1%,9.9%,0%,-5%
COc1cc2c(cc1NC(=O)CN(C)Cc1ccc(OC)c(OC)c1)oc1ccccc12,-29%,-7%,3%,-3%,-0.9%,-1%,-8%
Cc1ccc(-n2c3c(c(=O)[nH]c2=O)C(NS(=O)(=O)c2ccc(C)cc2)(C(F)(F)F)C(=O)N3)cc1 (stereo not given),-12%&0%,5%,-3%&-5%,-10%,0.0%&-0.9%,4%&-1%,7%&1%
O=C(Nc1nc2c(Br)cc(Br)cc2c(=O)s1)c1ccco1,6%,7%,-1%,1%,0.0%,-5%,2%
O=C(Nc1cccc(Cl)c1Cl)C1CCN(c2ncccn2)CC1,4%,7%,-20%,5%,-2.0%,-5%,10%
COC(=O)c1sc(-c2ccc(C(C)(C)C)cc2)cc1NC(=O)c1ccccc1C(=O)O,-9%,0%,0%,2%,0.9%,1%,7%

# Bioassay records from PubChem BioAssay.
